Screening results (PubChem BioAssay)
miR-21 FLuc = qHTS Assay for Modulators of miRNAs and/orActivators of miR-21; HeLa miR-21 FLuc reporter, luciferase, 48 h; Potency, µM (top dose mostly 38.3 µM), for inactives: at the top dose reporter change, positive = more light; 340,000 tested, under 10 active; active = well fitted rising curve with a large enough effect; inconclusive = small, poorly fitted or top-dose-only effect; inactive = no such curve, though single readings can be large or run the other way;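 note: % of control where 0% means no effect; miR-21 action dims this reporter so a rising signal means less miR-21 action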
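Compounds were titrated across several concentrations (up to approximately 40 uM) and incubated 48 hours with HeLa miR-21-FLuc reporter cells (miR-21 target sequence downstream of FLuc, endogenous miR-21). Readout was firefly luciferase luminescence after lytic detection reagent.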
GLA inh pH 4.5 = qHTS Assay for Inhibitors of Human alpha-Galactosidase at pH 4.5; Alpha-galactosidase A (Homo sapiens), P06280; purified enzyme, 4-MU-alpha-Gal fluorescence, pH 4.5; activity change, negative = inhibition, % at 105 µM; 230,000 tested, under 10 active; inconclusive = small, poorly fitted or top-dose-only inhibition, or a rising curve; inactive = flat fitted curve, though single readings scatter; no compound was filed as active;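 note: 0% = full activity with enzyme and -100% = basal without enzyme; dose as in the result columns while the protocol names 77 µM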
Target sequence (P06280 whole entry, looked up): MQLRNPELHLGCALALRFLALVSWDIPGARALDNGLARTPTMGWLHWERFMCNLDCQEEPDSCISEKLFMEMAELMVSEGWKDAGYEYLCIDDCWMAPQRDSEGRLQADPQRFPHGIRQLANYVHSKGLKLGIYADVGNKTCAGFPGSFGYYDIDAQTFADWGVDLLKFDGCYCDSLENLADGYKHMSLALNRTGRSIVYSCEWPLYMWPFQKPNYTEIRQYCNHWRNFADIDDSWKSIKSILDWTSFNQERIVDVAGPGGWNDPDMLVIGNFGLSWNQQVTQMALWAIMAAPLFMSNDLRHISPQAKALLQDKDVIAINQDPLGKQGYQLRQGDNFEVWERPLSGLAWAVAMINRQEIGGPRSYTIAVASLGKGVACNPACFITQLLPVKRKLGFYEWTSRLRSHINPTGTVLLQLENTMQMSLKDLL
Rango complex inh = qHTS Assay for Inhibitors of Rango (Ran-regulated importin-beta cargo) - Importin beta complex formation | Rango CFP/YFP FRET sensor + importin beta, 45 min | Potency, µM (doses to about 92.2 µM), for the others: top-dose inhibition of complex formation | 340,000 tested, 0.031% active | AID 540263, 2011; active = rising FRET ratio curve, often small or poorly fitted; inconclusive = mostly compound fluorescence or quenching in the first reads; inactive = flat curves in all reads;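 note: potency is the fitted concentration of half-maximal effect; 0% = DMSO wells and 100% = buffer wells lacking importin beta; nearly all actives have a fitted effect of over 15% in size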
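FRET biosensor Rango (snurportin 1 IBB between N-terminal EYFP and C-terminal Cerulean), 50 nM in PBS/1 mM DTT/0.02% Tween-20/0.1% BSA, preincubated 5 min RT with compound; 0.125 microM importin beta added, 45 min RT, CFP/YFP FRET ratio read.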
Rango dissoc inh = qHTS Assay for Inhibitors of RanGTP induced Rango (Ran-regulated importin-beta cargo) - Importin beta complex dissociation | Biochemical FRET Rango-importin beta, RanGTP-induced dissociation | Potency, µM (titrated, usually from 46.1 µM), for inactives: at the highest dose activity change, negative = inhibition | 340,000 tested, 0.071% active | AID 540253, 2011; active means falling FRET ratio curve, often poorly fitted, with flat reads before Ran was added; inconclusive means other falling curves, or compound fluorescence or quenching; inactive means flat or rising ratio curve;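 note: potency is the fitted concentration of half-maximal effect; % of control where 0% means no effect; nearly all actives have a fitted effect of over 45% in size; -100% = wells without RanGTP and RCC1; the record marks most hits as doubtful in a second field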
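Compounds preincubate 5 min with complex of recombinant Rango and importin beta in PBS with 1 mM DTT. Ran (0.6 uM) loaded with 2 mM GTP plus 0.2 uM RCC1 starts dissociation; FRET is recorded 45 min later.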
An asterisk follows results filed as active; ? = inconclusive; . = no result given; & = joins results of further samples.

| miR-21 FLuc | GLA inh pH 4.5 | Rango complex inh | Rango dissoc inh | structure |
| --- | --- | --- | --- | --- |
| . | . | -1.3% | 2% | COc1ccc(CC2C(=O)NC(C)C(=O)N(C)C3Cc4ccc(cc4)Oc4cc(ccc4O)CC(C(=O)NC(C)C(=O)NC(C)C(=O)N2C)N(C)C3=O)cc1 (centres undefined) |
| -3% | 1 | 0.3% | -3% | CCOc1ccc2nc(N/C(N)=N/C(=S)Nc3ccc(C)c(C)c3)nc(C)c2c1 |
| -4% | -1 | -6.5% | -10% | C/C(=N\N1CCN(C2c3ccccc3-c3ccccc32)CC1)c1ccco1 |
| 0% | -15 | -0.2% | 10% | CCOC(=O)c1sc(=S)n(-c2cccc(C(F)(F)F)c2)c1SC |
| 0% | . | -2.5% | -1% | CCOC(=O)N1CCN(C(=O)c2c[nH]c3ccc(S(=O)(=O)N(C)c4cccc(C)c4)cc3c2=O)CC1 |
| -5% | 3 | -0.1% | -7% | CC(C)CCSc1nc2c(c(=O)[nH]c(=O)n2C)n1CCc1ccccc1 |
| 2%&-8% | . | 0.0% | 15% | CC(C)OCCCNC(=O)CN1C(=O)COc2ccc(S(=O)(=O)N3CCCCCC3)cc21 |
| . | . | 4.8% | 11% | CCOc1ccccc1N1CCN(CC(=O)Nc2ccccc2C(=O)NC2CC2)CC1 |
| 1% | . | 1.0% | -8% | C=CCOc1ccccc1CN1CCC(n2nccc2NC(=O)C2CC2)CC1 |
| -2% | . | -1.2% | -1% | Cc1ccccc1C(=O)NCCCNC(=O)c1ccccn1 |
| -8% | -4 | -0.1% | 0% | Fc1cnc(N2CCc3ccccc32)nc1N1CCc2ccccc21 |
| . | . | -2.7% | 3% | CCOc1ccc(C(=O)Nc2ccc(S(=O)(=O)N3C[C@@H]4C[C@@H](C3)c3cccc(=O)n3C4)cc2)cc1 |
| . | . | -1.8% | -10% | COC(=O)C(=O)C1CCc2c(Cl)cc(OC)c(OC)c2C1=O (centres undefined) |
| -4% | -1 | -4.5% | 3% | CC1CCCCC1NC(=S)NC(=O)c1ccccc1Br (centres undefined) |
| -6% | . | 1.0% | -5% | CCCN(c1ccccc1C(=O)O)S(=O)(=O)c1ccc2c(c1)n(C)c(=O)n2C |
| . | . | 3.3% | 3% | Cc1ccc(CNC(=O)COC(=O)COc2ccc(C#N)cc2)cc1 |
| 4% | . | 0.5% | 13% | Cc1ccccc1NC(=O)C1CCN(S(=O)(=O)c2ccc3c(c2)NC(=O)C(C)S3)CC1 (centres undefined) |
| -4% | 6 | 0.6% | -10% | CC(C)OP(=O)(c1ccccc1)c1ccccc1 |
| -4% | -13 | -0.2% | -9% | CCOC(=O)C1=C(C)NC(SCc2cc(=O)[nH][nH]2)=C(C#N)C1c1cccs1 (centres undefined) |
| . | . | 5.5% | 10% | COc1ccc(C(=O)NCC(C)(C)CNC(=O)c2ccc(OC)c(OC)c2)cc1OC |
| 1% | -5 | -9.5% | -13% | CCOC(=O)C1=C(Nc2ccccc2)OCC1=O |
| -2% | -2 | -0.4% | -3% | O=C(Cc1cccs1)Nc1nnc(SCc2ccc(F)cc2)s1 |
| -2% | 1 | 0.0% | 1% | Cc1ccc(CNC(=O)Cn2nnc3ccccc3c2=O)cc1 |
| . | . | -0.5% | 8% | Cc1cc(C)n(-c2ccc(C(=O)N3CCN(c4ccccn4)CC3)cc2)n1 |
| -1% | . | -0.1% | -12% | CCCNC(=O)CCc1c(C)nc2c(c(C)nn2-c2ccccc2)c1C |
| 0% | -2 | -0.6% | 0% | Cc1ccc(-c2nn(-c3ccccc3)cc2C(=O)OCC(=O)Nc2ncc(Cl)cc2Cl)cc1 |
| -8% | -3 | -3.8% | -16% | COc1ccc(/C=N/NC(=O)c2ccc(CSc3nc(C)cc(C)n3)cc2)cc1O |
| -4% | -2 | . | . | CCOc1cccc(-c2nnc3sc(-c4ccc(C)cc4)nn23)c1 |
| -3% | -3 | -1.4% | -6% | C=CCc1cccc(C=Nc2ccc(Br)cc2)c1O |
| -3% | . | 0.1% | -3% | COc1ccccc1CNC(=O)CCCNC(=O)Cn1cnc2sc(C)c(C)c2c1=O |
| . | . | -2.7% | -17% | Cc1ccc(S(=O)(=O)N2CCN(C(=O)COC(=O)Cc3ccc(Cl)cc3)CC2)c(C)c1 |
| -1% | 6 | 6.2% | -5% | CCOC(=O)N1CCN(C(=O)C2CCN(S(=O)(=O)c3ccc(Cl)cc3)CC2)CC1 |
| 0% | -11 | -1.9% | -6% | C=CCOc1ccc(CNC(C)(C)CO)cc1OCC |
| -3% | -13 | 2.4% | -12% | CC(C)N1C(=O)/C(=C/c2nc3ccccc3c(=O)n2-c2ccccc2)c2ccccc21 |
| -22% | 0 | ? | -11% | COc1cccc(NC(=O)c2ccc(-c3ccc([N+](=O)[O-])cc3)o2)c1 |
| 4% | . | -0.8% | -3% | CC(NS(=O)(=O)c1ccccc1)C(=O)NC1CCCC1 (centres undefined) |
| -6% | 1 | -1.4% | -2% | CCOC(=O)C1CCCN(c2c(Nc3cc(C)cc(C)c3)c(=O)c2=O)C1 (centres undefined) |
| -3% | . | -0.4% | 0% | COc1ccc(S(=O)(=O)NNC(=O)C23CC4CC(CC(C4)C2)C3)cc1 |
| . | . | -2.5% | 29% | COC(=O)C[C@H](NC(=O)Cn1cc(C)c(=O)[nH]c1=O)C(=O)OC |
| -15% | 2 | 4.2% | -3% | COc1c(F)c(F)c(C(=O)Nc2ccc(-c3nc4ccccc4[nH]3)cc2)c(F)c1F |
| -6% | -3 | 2.4% | 2% | NC(=O)N\N=C/C=C/C=C/c1ccc(F)cc1 |
| 3% | -3 | -1.4% | -3% | Cc1ccccc1-c1ccc(=O)n(CC(=O)Nc2ccc(S(=O)(=O)N(C)C)cc2)n1 |
| -7% | 7 | 0.1% | -3% | Cc1cc(=O)n2[nH]c(NCc3c(F)cccc3Cl)nc2n1 |
| . | . | -3.2% | 6% | CN(C)C(=O)c1ccc(NC(=O)COc2cccc3c2OC(C)(C)C3)cc1 |
| -1% | 3 | 0.1% | 3% | Cc1cc(C)c2c(=O)[nH]n(C3CCOC(C)(C)C3)c2n1 (centres undefined) |
| 2% | -2 | 0.2% | -8% | CCc1nnc(NC(=O)c2cccc(S(=O)(=O)N3CCc4ccccc43)c2)s1 |
| -2% | -27 | -4.4% | -6% | COc1ccc(-c2ccnc3nc(N4CCOCC4)nn23)cc1 |
| 1% | . | -1.1% | -3% | O=C(CCN1CCN(c2ccc([N+](=O)[O-])cc2)CC1)c1ccc(Cl)cc1 |
| -5% | -8 | -1.2% | -8% | Cc1nn(-c2ccccc2)c(C)c1C(=O)OCC(=O)NCc1ccco1 |
| -3% | 9 | -3.4% | -8% | C/C=C(\C)C(=O)Nc1cccc(C2=NOC3(C2)C[C@H](C(N)=O)N(C(=O)CC#N)C3)c1 (some centres undefined) |

Remaining list, next part.
| miR-21 FLuc | GLA inh pH 4.5 | Rango complex inh | Rango dissoc inh | structure |
| --- | --- | --- | --- | --- |
| . | . | -5.9% | -15% | CCCCN(C(=O)c1cc2c(s1)CCC2)c1c(N)n(CC(C)C)c(=O)[nH]c1=O |
| -3% | . | -1.0% | -1% | COc1ccc(S(=O)(=O)N2CCOC2CNC(=O)C(=O)NCCCN2CCOCC2)cc1C (centres undefined) |
| -8% | . | -2.5% | -7% | Cc1occc1C(=O)N1CCN(c2ccc(Cl)cc2)CC1 |
| . | . | 0.2% | 2% | COC(=O)c1c(C)[nH]c(C(=O)C(C)OC(=O)C2CC2C)c1C (centres undefined) |
| -7% | 1 | 6.4% | -8% | CCOC(=O)c1n[nH]c2ccccc12 |
| 2% | 6 | 1.5% | -15% | CCOC(=O)c1c(C)c(C(=O)N2CCCCCC2)c(C)n1C |
| 1% | -2 | -0.1% | -4% | O=C(CSCc1ccccc1)NNC(=S)Nc1cccc(Cl)c1Cl |
| . | . | 0.4% | -6% | O=C(NCC(c1cccs1)N1CCOCC1)c1cn(-c2ccccc2)nc1-c1ccccc1 (centres undefined) |
| -9% | 8 | -1.1% | -4% | COc1ccc(/C=N/n2c(C)cc(C)cc2=O)cc1 |
| -15% | 9 | . | . | O=C(CSc1ccc2nnc(-c3cccnc3)n2n1)N1CCc2ccccc21 |
| 0% | -5 | -1.2% | 7% | CN(CCCNC(=O)C1CCC(=O)N1Cc1ccc(F)cc1)c1ccccc1 (centres undefined) |
| . | . | -1.8% | 4% | CC(C)COc1ccc(C(=O)NNC(=O)CCC(=O)c2cccs2)cc1 |
| -19% | 8 | ? | -20% | COc1cc2c(cc1OC)CN(Cc1cc(=O)n3cc(C)ccc3n1)CC2 |
| -4% | . | 1.0% | 14% | CC(C)c1ccc(OCC(=O)N2CCN(c3ccccn3)CC2)c(Br)c1 |
| 6% | . | 0.0% | 6% | COc1cccc(CC2(CO)CCCN(Cc3ccc(OC)c(C)c3OC)C2)c1 (centres undefined) |
| -23% | 2 | 1.3% | -6% | CCc1c(C)sc(NC(=O)c2cc(C3CC3)on2)c1C#N |
| 5% | -11 | ? | ? | CC(C)n1cc(/C=C2\NC(=O)N(c3cccc(Cl)c3)C2=O)c2ccccc21 |
| -7% | ? | -0.8% | 15% | CCOc1c2ccc(C(=O)NCc3ccco3)cc2nn1CC |
| -2% | 5 | -3.5% | -23% | O=C(Nc1cc(C(=O)N2CCOCC2)ccc1N1CCCC1)c1cccs1 |
| 8% | 10 | 4.1% | 1% | Cc1ccc(N(C(=O)c2ccccn2)C2(C(=O)NC3CCCC3)CCCCC2)cc1 |
| -16% | 8 | 0.3% | 9% | CN(C(=O)Nc1ccc(C(C)(C)C)cc1)C1CCCCC1 |
| . | . | 1.6% | 6% | C=CC[C@H](CC(=O)N(CCO)Cc1ccccc1)C(=O)N[C@H](COC(=O)[C@@H](CC=C)Cc1ccc(F)cc1)Cc1c[nH]c2ccccc12 |
| -49% | 11 | 6.8% | 15% | Cc1cc(N2CCCCC2)n2ncc(-c3ccc(Cl)cc3)c2n1 |
| -3% | . | -0.6% | 9% | CC(=O)Nc1ccc(C(=O)COC(=O)CCN2C(=O)C3CC=CCC3C2=O)cc1 (centres undefined) |
| 0% | -3 | -0.9% | 26% | O=C(NCCN1CCOCC1)C1CCC(=O)N1Cc1ccc(F)cc1 (centres undefined) |
| -16% | 1 | 2.3% | 1% | O=C(CNC(=O)c1cccc(F)c1)OCC(=O)N1CCCCC1 |
| -2% | 14 | ? | ? | CN(C)C=Nc1nc2ccccc2nc1N1CCCC1 |
| -2% | 0 | 2.4% | ? | CC(C)C(NC(=O)OC(C)(C)C)C(=O)N1CCCC1C(=O)NC(Cc1ccccc1)C(N)=O (centres undefined) |
| -17% | . | 1.2% | 1% | Cn1nc(-c2ccccc2)cc1NC(=O)c1ccccc1 |
| 6% | -4 | -0.5% | -1% | CCC(Sc1nc2cc3c(cc2c(=O)n1Cc1ccco1)OCO3)C(=O)Nc1cccc(OC)c1 (centres undefined) |
| -42% | . | 1.6% | 24% | O=C(Nc1ccc(F)c(Cl)c1)N1CCCCCC1 |
| . | . | -0.8% | 0% | O=C(CNC(=O)c1ccco1)NNC(=O)c1cccc(Cl)c1 |
| . | . | 1.2% | 5% | CC(C)C(=O)Nc1cccc(COc2cccc(CN(Cc3ccccc3)C(=O)OC(C)(C)C)c2)c1 |
| 6% | . | -0.8% | 18% | CC(=O)Nc1ccc(C(=O)Nc2ccncc2)cc1 |
| -6% | -6 | -1.8% | -5% | Cc1ccc(N2C(=O)C(O)(C(F)(F)F)C3=C2CC(C)(C)CC3=O)cc1 (centres undefined) |
| -14% | 2 | ? | -17% | COc1ccccc1NC(=O)c1coc(=O)c(Br)c1 |
| -7% | 15 | -1.1% | 0% | CCOC(=O)c1cnc(SC)nc1Sc1cc(Cl)ccc1Cl |
| 5% | 1 | -1.9% | -14% | O=C(Nc1ccn(Cc2ccc(F)cc2)n1)c1ccncc1 |

A portion of the library, so the mix of outcomes need not match the whole.
